# Compound activity: PubChem BioAssay, Broad Institute
# rRNA inh HTS = selective bacterial rRNA inhibition in E. coli; GFP signal change (wild-type ribosome), % (concentration not given with the values); actives 1.6% (n = 350,000); E. coli WT GFP vs humanized-ribosome RFP mutants, fluorescence, 24 h; hits give low values; DMSO median 0, no signal -100;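 active means significant combined selectivity score with lowered wild-type GFP, culture density cut under 30%, mutant RFP and density less affected; inactive means any of these conditions unmet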; further: one replicate is shown; some compounds called inactive have numbers as strong as hits
# MLL AF4-AF9 inh = inhibitors of human MLL-AF4/AF9 interaction. AlphaScreen, biotin-AF4 peptide binding to FLAG-AF9. inhibition, % at 10 µM. actives 0.47% (n = 350,000). AID 651704;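 active means every replicate reaching a set inhibition limit, whatever the replicate mean, cut at about 25% in these data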;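 further: 0% = plate neutral control median and 100% = total signal loss; the record names both 10 and 1 µM as test concentration; the first replicate is given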
# Target sequence (P42568 whole entry, looked up): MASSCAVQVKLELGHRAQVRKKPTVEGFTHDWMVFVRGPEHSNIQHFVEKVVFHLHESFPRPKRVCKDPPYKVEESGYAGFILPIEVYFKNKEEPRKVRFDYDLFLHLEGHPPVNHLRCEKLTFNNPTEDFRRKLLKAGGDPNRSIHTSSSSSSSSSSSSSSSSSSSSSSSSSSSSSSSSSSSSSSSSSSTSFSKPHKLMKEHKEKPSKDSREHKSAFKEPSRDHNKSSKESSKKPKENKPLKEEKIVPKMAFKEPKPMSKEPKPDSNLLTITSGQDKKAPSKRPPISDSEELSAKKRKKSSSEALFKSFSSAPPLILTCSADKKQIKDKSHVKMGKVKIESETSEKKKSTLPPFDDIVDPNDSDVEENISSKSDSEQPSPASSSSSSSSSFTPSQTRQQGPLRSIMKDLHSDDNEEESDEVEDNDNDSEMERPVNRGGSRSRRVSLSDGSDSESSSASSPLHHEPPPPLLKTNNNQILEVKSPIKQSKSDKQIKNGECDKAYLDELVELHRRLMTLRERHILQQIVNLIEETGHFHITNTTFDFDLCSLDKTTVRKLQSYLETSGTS
# rRNA inh HTS OD600 = further read-out of rRNA inh HTS, marked with its call; OD600 change, %; measured here: OD600 growth;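 optical density of the mix in the first replicate; 0 = DMSO median and -100 = no signal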
# rRNA inh HTS RFP = further read-out of rRNA inh HTS, marked with its call; RFP signal change, %; measured here: RFP humanized mutant strains;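 first replicate; 0 = DMSO median and -100 = no signal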
# An asterisk follows results filed as active. Not all compounds are listed (hit frequency here may not be typical).
SMILES,rRNA inh HTS,rRNA inh HTS OD600,rRNA inh HTS RFP,MLL AF4-AF9 inh
Cc1noc(C)c1NC(=O)NCC[C@@H]1CC[C@H](NC(=O)c2ccc(F)cc2)[C@H](CO)O1,-2,5,-0.8,-1.8
CCCNC(=O)N1CC(=O)N2[C@H](CO)[C@H](c3ccc(C#CCC4CCCC4)cc3)[C@@H]2C1,-5,-26,2.2,0.8
Cc1ccccc1S(=O)(=O)N1CCCCN2[C@H](CO)[C@@H](c3ccc(-c4cncnc4)cc3)[C@H]2C1,1,-5,-1.2,-5.0
C[C@H](NC(=O)C[C@H]1CC[C@H](NC(=O)Nc2ccc3c(c2)OCO3)[C@@H](CO)O1)c1ccccc1,-10,-2,-3.8,-2.0
O=C1CN(S(=O)(=O)c2ccccc2)C[C@@H]2[C@H](c3ccc(Br)cc3)[C@H](CO)N12,0,4,2.6,-2.8
COCC(=O)N(C)C[C@H]1Oc2cc(C#CCN(C)C)ccc2S(=O)(=O)N([C@@H](C)CO)C[C@@H]1C,8,16,-4.7,-3.0
CC(C)C#Cc1ccc([C@H]2[C@H]3CN(C(=O)Nc4ccccc4)CCCCN3[C@H]2CO)cc1,0,-38,11,3.0
O=C(C[C@H]1CC[C@@H]2[C@H](COC[C@@H](O)CN2CC2CCCCC2)O1)NCc1ccc(Cl)cc1,0,2,-0.7,-0.3
C[C@@H]1CN([C@@H](C)CO)C(=O)c2c(c3ccccc3n2C)-c2ccccc2CO[C@@H]1CN(C)Cc1ccc(C(F)(F)F)cc1,8,14,-0.4,0.3
C[C@@H]1CN([C@@H](C)CO)C(=O)c2cccc(NC(=O)CCCCCC(=O)Nc3ccccc3N)c2O[C@H]1CN(C)Cc1ccc(Cl)c(Cl)c1,-5,-8,1.4,-11

# One compound at a time (already shown).
# C[C@H](NC(=O)C[C@H]1CC[C@H](NC(=O)Nc2ccc3c(c2)OCO3)[C@@H](CO)O1)c1ccccc1 in the list: rRNA inh HTS: -10; rRNA inh HTS OD600: -2; rRNA inh HTS RFP: -3.8; MLL AF4-AF9 inh: -2.0
# Cc1ccccc1S(=O)(=O)N1CCCCN2[C@H](CO)[C@@H](c3ccc(-c4cncnc4)cc3)[C@H]2C1 in the list: rRNA inh HTS: 1; rRNA inh HTS OD600: -5; rRNA inh HTS RFP: -1.2; MLL AF4-AF9 inh: -5.0

# Continuation.
SMILES,rRNA inh HTS,rRNA inh HTS OD600,rRNA inh HTS RFP,MLL AF4-AF9 inh
CN(C)CCCNC(=O)C[C@@H]1CC[C@H]2[C@@H](COc3ccc(NC(=O)NC4CCCC4)cc3C(=O)N2C)O1,2,-5,-0.4,-0.7
O=C(C[C@H]1CC[C@@H]2[C@H](COC[C@@H](O)CN2C(=O)c2ccccn2)O1)N1CCN(c2ccccc2)CC1,2,5,-0.4,-0.4
Cc1ccc(S(=O)(=O)Nc2ccc3c(c2)CC(=O)N([C@H](C)CO)C[C@@H](C)[C@H](CN(C)C(=O)Nc2ccc4c(c2)OCO4)O3)cc1,1,-3,0.8,0.0
CC(C)NC(=O)N(C)C[C@@H]1Oc2ccc(NS(=O)(=O)c3cccs3)cc2CC(=O)N([C@@H](C)CO)C[C@H]1C,3,9,-2.1,-3.4
CCCC#Cc1ccc2c(c1)O[C@@H](CN(C)CC1CC1)[C@@H](C)CN([C@@H](C)CO)S2(=O)=O,1,-3,0.8,9.1
CN(C)CCCNC(=O)C[C@H]1CC[C@H]2[C@@H](COC[C@@H](O)CN2CC2CC2)O1,2,3,-2.1,0.3
C[C@@H]1CCCCO[C@@H](CN(C)C(=O)Nc2ccc3c(c2)OCO3)[C@@H](C)CN([C@H](C)CO)C(=O)c2cc(NS(=O)(=O)c3ccc(Cl)cc3)ccc2O1,-2,-6,-1.2,-10
COc1ccc2c3c([nH]c2c1)[C@@H](CO)N(Cc1nccs1)CC31CN(C(=O)C2CCC2)C1,1,7,3.1,10
COc1ccc(C(C(=O)NC(C)(C)C)n2c(=O)c(-c3cc4ccccc4[nH]3)nc3ccccc32)cc1 (configuration not stated),18,-15,4.3,-39
C[C@@H]1CN([C@H](C)CO)C(=O)Cc2cc(NC(=O)c3ccncc3)ccc2O[C@H]1CN(C)Cc1ccc(Cl)c(Cl)c1,-11,-27,33,4.1
C[C@H](O)C#Cc1ccc([C@@H]2[C@@H](CO)N3CCCCN(C(=O)Nc4ccccc4)C[C@@H]23)cc1,3,10,-0.4,-5.0
CO[C@H]1CN(C)C(=O)c2cc(NC(=O)c3ccccc3F)ccc2OC[C@@H](C)N(CC2CC2)C[C@@H]1C,-1,2,0.2,-1.0
CCNC(=O)Nc1ccc2c(c1)C(=O)N(C)[C@H]1CC[C@H](CC(=O)Nc3ccccc3)O[C@@H]1CO2,1,0,-0.4,-1.1
CCC(=O)N1CC2(CCN(C(=O)Nc3c(C)noc3C)CC2)c2c([nH]c3cc(OC)ccc23)[C@@H]1CO,2,14,-2.1,-4.7
Cc1ccc(-c2ccc(CN3C(CC(C)C)C(=O)N(Cc4cn(CC5CCCCC5)nn4)CCS3(=O)=O)cc2)cc1 (configuration not stated),3,9,-3.1,-2.7
COc1ccc2c3c(n(C)c2c1)[C@@H](CO)N(S(C)(=O)=O)CC31CCN(C(=O)C2CC2)CC1,0,-2,0.3,-2.5
O=S(=O)(CCN1CCCC1)NCCNS(=O)(=O)c1ccc(F)cc1Br,2,4,-2.3,-2.0
O=C(C1CCCCC1)N1C[C@@H]2[C@H](c3ccccc31)[C@H](CO)N2C(=O)c1ccccc1F,-5,1,-1.9,0.1
C[C@@H]1CN([C@H](C)CO)C(=O)c2cc(NC(=O)Cc3ccccc3)ccc2O[C@H]1CN(C)Cc1ccccc1,1,6,1.7,-4.7
C[C@@H]1CN([C@H](C)CO)C(=O)c2cc(/C=C/c3ccccc3)cnc2O[C@@H]1CN(C)C(=O)C1CC1,4,7,-1.7,0.6
CO[C@H]1CN(C)C(=O)c2ccc(NC(=O)c3nc4ccccc4s3)cc2OC[C@H](C)N(Cc2ccncc2)C[C@H]1C,-12,-16,18,10
COc1ccccc1S(=O)(=O)N(C)C[C@H]1Oc2cc(/C=C/c3ccccc3)ccc2S(=O)(=O)N([C@H](C)CO)C[C@H]1C,5,6,-0.9,4.8
Cc1ccc(S(=O)(=O)N(C)C[C@@H]2Oc3ccc(NC(=O)Nc4c(C)noc4C)cc3CC(=O)N([C@H](C)CO)C[C@@H]2C)cc1,-2,-4,-0.3,-0.6
COc1ccccc1NC(=O)N[C@H]1CC[C@H](CC(=O)N2CCC(Cc3ccccc3)CC2)O[C@H]1CO,-5,-19,-0.9,-2.2
C/C=C/c1cnc2c(c1)C(=O)N([C@H](C)CO)C[C@@H](C)[C@H](CN(C)C(=O)c1cnccn1)O2,0,8,-2.8,-3.2
CCC(=O)N(C)C[C@@H]1Oc2ncc(-c3ccc(C#N)cc3)cc2C(=O)N([C@H](C)CO)C[C@H]1C,3,6,-0.4,-1.6
C[C@H](CO)N1C[C@H](C)[C@@H](CN(C)C(=O)Nc2ccc(F)cc2)Oc2ccc(NS(C)(=O)=O)cc2CC1=O,5,8,-0.2,-2.2
CN(C)C(=O)c1cccc(-c2ccccc2[C@@H]2[C@@H](CO)N(C(=O)C3CCCCC3)[C@H]2C#N)c1,6,15,2.7,-0.2
CN(C)CC(=O)Nc1ccc2c(c1)[C@H]1C[C@@H](CC(=O)NCc3cccc(F)c3)O[C@@H](CO)[C@H]1O2,9,8,-2.1,1.5
CNC[C@H]1Oc2c(NC(=O)Nc3cccc4ccccc34)cccc2C(=O)N([C@H](C)CO)C[C@@H]1C,-4,1,0.5,3.5
COc1ccc(-c2ccc3c(c2)[C@H]2[C@H](CCN2C(=O)C2CCCC2)[C@H](CO)N3C)cc1,-38,-54,25,26*
C[C@@H]1CCCCO[C@H](CN(C)Cc2ccc(Cl)c(Cl)c2)[C@@H](C)CN([C@H](C)CO)C(=O)c2cc(NS(=O)(=O)c3ccc(F)cc3)ccc2O1,0,-4,0.2,-14
CC1(C(=O)NCc2ccccc2)CCC(=O)N1CCOc1ccccc1 (configuration not stated),-8,1,2.2,-0.2
C[C@@H]1CCCCO[C@H](CN(C)S(=O)(=O)c2ccc(Cl)cc2)[C@@H](C)CN([C@H](C)CO)C(=O)c2cc(N(C)C)ccc2O1,-3,7,1.2,7.5
CN1CCN(C(=O)C[C@@H]2CC[C@H]3[C@@H](COc4ccc(NC(=O)C5CC5)cc4C(=O)N3C)O2)CC1,-2,-5,-4.4,-0.7
C/C=C/c1cnc2c(c1)C(=O)N([C@H](C)CO)C[C@@H](C)[C@H](CN(C)C(=O)Cc1cccnc1)O2,5,8,-1.7,-0.9
C[C@H](CO)N1C[C@H](C)[C@@H](CN(C)S(=O)(=O)c2ccc(Cl)cc2)Oc2ccc(NS(=O)(=O)c3cccs3)cc2C1=O,-2,-6,4.0,-3.1
CCC(=O)N1CCCCN2[C@@H](CO)[C@H](c3ccc(-c4ccc(F)cc4)cc3)[C@@H]2C1,2,0,-0.6,-1.5
O=C(N[C@H]1CC[C@@H](CCn2cc(C3(O)CCCC3)nn2)O[C@@H]1CO)C1CCC1,2,9,-0.1,-3.3
COc1cccc(-c2nc(Cl)nc3cc(Cl)ccc23)c1,12,11,3.0,1.1

# Seven entries from above, set out differently:
# Values run as follows: rRNA inh HTS | rRNA inh HTS OD600 | rRNA inh HTS RFP | MLL AF4-AF9 inh
C[C@H](CO)N1C[C@H](C)[C@@H](CN(C)S(=O)(=O)c2ccc(Cl)cc2)Oc2ccc(NS(=O)(=O)c3cccs3)cc2C1=O
    -2 | -6 | 4.0 | -3.1
CCC(=O)N1CCCCN2[C@@H](CO)[C@H](c3ccc(-c4ccc(F)cc4)cc3)[C@@H]2C1
    2 | 0 | -0.6 | -1.5
C/C=C/c1cnc2c(c1)C(=O)N([C@H](C)CO)C[C@@H](C)[C@H](CN(C)C(=O)Cc1cccnc1)O2
    5 | 8 | -1.7 | -0.9
CC1(C(=O)NCc2ccccc2)CCC(=O)N1CCOc1ccccc1 (configuration not stated)
    -8 | 1 | 2.2 | -0.2
CN1CCN(C(=O)C[C@@H]2CC[C@H]3[C@@H](COc4ccc(NC(=O)C5CC5)cc4C(=O)N3C)O2)CC1
    -2 | -5 | -4.4 | -0.7
COc1cccc(-c2nc(Cl)nc3cc(Cl)ccc23)c1
    12 | 11 | 3.0 | 1.1
O=C(N[C@H]1CC[C@@H](CCn2cc(C3(O)CCCC3)nn2)O[C@@H]1CO)C1CCC1
    2 | 9 | -0.1 | -3.3

# (cont.)
SMILES,rRNA inh HTS,rRNA inh HTS OD600,rRNA inh HTS RFP,MLL AF4-AF9 inh
COCC(=O)N(C)C[C@@H]1Oc2ncc(C#Cc3ccncc3)cc2C(=O)N([C@@H](C)CO)C[C@H]1C,4,9,-1.5,-8.8
CO[C@H]1CN(C)C(=O)c2cc(NC(=O)C3CC3)ccc2OC[C@H](C)N(C(C)=O)C[C@@H]1C,1,2,-1.0,-2.2
C[C@@H]1CN([C@@H](C)CO)C(=O)c2cc(-c3ccncc3)cnc2O[C@H]1CN(C)C(=O)NC1CCCC1,1,-1,-5.2,-5.4
Cc1ccc(C(O)c2ncc(-c3cccc(C(F)(F)F)c3)[nH]2)c(C)c1 (configuration not stated),-49,-69,-5.4,7.0
CCc1nc2ccc(C(=O)NCc3ccc4c(c3)OCO4)cn2c1N(CC)CCN(C)C,12,12,0.6,3.1
O=C(COC(=O)COc1cccc(Br)c1)Nc1ccc(F)cc1F,3,11,-1.6,-1.6
C[C@@H]1CN([C@@H](C)CO)S(=O)(=O)c2ccc(-c3ccccc3)cc2O[C@@H]1CN(C)C(=O)Cc1ccccc1,-9,-19,-1.1,-3.5
COc1ccc(NC(=O)N2CC(=O)N3[C@@H](CO)[C@H](c4ccc(C#CCC5CCCC5)cc4)[C@@H]3C2)cc1,5,-13,26,6.6
CN(C)C(=O)C[C@@H]1C=C[C@H](NC(=O)C2CCOCC2)[C@@H](CO)O1,0,1,0.0,-1.9
CC(C)NC(=O)N[C@@H]1C=C[C@H](CC(=O)NCc2ccc(Oc3ccccc3)cc2)O[C@H]1CO,-4,-10,-0.6,-0.8
C[C@H](CO)N1C[C@H](C)[C@@H](CN(C)C(=O)NC2CCCCC2)OCCCC[C@H](C)Oc2ccc(NC(=O)Nc3ccc(C(F)(F)F)cc3)cc2C1=O,-5,10,-3.0,-3.8
CC(C)(C)OC(=O)N(CCc1ccccc1)Cc1ccccc1OCc1ccc(NC(=O)C2CCC2)cc1,18,2,-1.2,2.4
COCCNC(=O)C1CCCN(C(=O)COCc2ccccc2)CC1 (configuration not stated),8,14,-1.5,-2.5
CO[C@@H]1CN(C)C(=O)c2cc(NS(C)(=O)=O)ccc2OC[C@H](C)N(CC2CC2)C[C@H]1C,-1,1,-1.8,-1.4
O=C(Nc1nnc([C@@H]2C[C@H](O)[C@@H](CO)O2)s1)c1cccc2ccccc12,10,18,1.5,1.8
COc1ccc(C#Cc2ccc3c(c2)[C@H]2[C@H](CCN2C(=O)C2CCCCC2)[C@@H](CO)N3)cc1,-2,1,-5.4,4.2
CCCCOc1ccc(C(=O)NCC(=O)N2CCN(C/C=C/c3ccccc3)CC2)cc1,2,-11,10,1.5
C[C@@H]1CN([C@H](C)CO)C(=O)c2cccc(NS(=O)(=O)c3cccs3)c2O[C@H]1CN(C)S(=O)(=O)c1ccc(Cl)cc1,2,3,0.5,-0.6
